KCNQ2 enhance – enhances the rat KCNQ2 potassium channel; O88943; CHO-K1 KCNQ2, FluxOR thallium flux fluorescence; active compounds read high; B-score at 10 µM; 310,000 compounds, 0.54% hits; AID 2239;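 active means fluorescence ratio B-score at least 3 SD of library B-scores, with initial fluorescence B-score within 3 SD, cut at about 5.3 in these data; same plate scores as AID 2156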;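 further: B-score of peak minus minimum over baseline fluorescence ratio after K+ and Tl+ stimulus; positive B-score means potentiation of KCNQ2 with more thallium influx and brighter signal; only the inactives scoring about 0 or higher are listed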
Target sequence (O88943 whole entry, looked up): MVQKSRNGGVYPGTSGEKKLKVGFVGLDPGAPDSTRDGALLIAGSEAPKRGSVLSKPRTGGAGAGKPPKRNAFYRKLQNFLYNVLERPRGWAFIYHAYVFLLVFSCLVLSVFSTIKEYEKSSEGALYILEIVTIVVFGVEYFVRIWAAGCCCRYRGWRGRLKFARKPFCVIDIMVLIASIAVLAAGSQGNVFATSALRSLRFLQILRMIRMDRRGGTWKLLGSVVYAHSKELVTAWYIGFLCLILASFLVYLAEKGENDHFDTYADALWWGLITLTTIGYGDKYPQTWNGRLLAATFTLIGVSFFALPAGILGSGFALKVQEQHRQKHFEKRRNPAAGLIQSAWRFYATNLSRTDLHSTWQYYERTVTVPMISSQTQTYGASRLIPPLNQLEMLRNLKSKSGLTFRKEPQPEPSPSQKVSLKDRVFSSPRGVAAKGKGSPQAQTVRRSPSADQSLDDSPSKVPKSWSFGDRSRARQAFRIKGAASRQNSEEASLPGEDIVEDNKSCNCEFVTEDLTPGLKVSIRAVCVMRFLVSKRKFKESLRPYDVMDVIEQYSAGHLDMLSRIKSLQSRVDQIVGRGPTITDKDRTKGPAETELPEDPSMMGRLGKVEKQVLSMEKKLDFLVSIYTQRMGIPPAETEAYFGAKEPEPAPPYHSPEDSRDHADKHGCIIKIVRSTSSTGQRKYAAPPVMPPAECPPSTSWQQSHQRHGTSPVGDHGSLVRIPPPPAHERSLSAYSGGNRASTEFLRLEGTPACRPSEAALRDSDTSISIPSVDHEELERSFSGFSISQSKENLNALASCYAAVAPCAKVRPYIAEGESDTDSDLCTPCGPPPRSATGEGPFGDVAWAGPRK
KCNQ2 enhance baseline – second read-out of KCNQ2 enhance, no call of its own (marks repeat the call); B-score; compound at 10 µM; measured here: initial fluorescence intensity artifact check;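 brightness before thallium and not channel activity; 0 = typical well and far values either way flag optical interference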
An asterisk follows results filed as active. Not all compounds are listed. The share of hits here may be higher or lower than overall.

How did CCOc1ccc(S(=O)(=O)NCC2CCCO2)c2cccnc12 (stereo not given) do in these assays?
KCNQ2 enhance: 1.1; KCNQ2 enhance baseline: 1.6

What do the screens show for `CCCCOC(=O)c1[nH]c(C)c(C(=O)OC)c1C`?
KCNQ2 enhance: 3.1; KCNQ2 enhance baseline: 0.88

What do the screens show for `O=C(O)c1c[nH]ccc1=O`?
KCNQ2 enhance: 0.65; KCNQ2 enhance baseline: 0.04

Results for Cc1cc(NC(=O)CSc2nnc3c(C)cc4cc(C)c(C)cc4n23)no1 ?
KCNQ2 enhance: 0.19; KCNQ2 enhance baseline: -1.8

What do the screens show for `Clc1cccc(N/N=C/c2ccc(N3CCOCC3)s2)c1`?
KCNQ2 enhance: 0.69; KCNQ2 enhance baseline: -0.41

What do the screens show for `Cc1cccc(C)c1NC(=O)CNC(=O)CCC(=O)c1cccs1`?
KCNQ2 enhance: 0.64; KCNQ2 enhance baseline: 0.52

What do the screens show for `COC(=O)c1cc(C(=O)NCc2ccccc2)c(=O)[nH]c1C`?
KCNQ2 enhance: 0.7; KCNQ2 enhance baseline: 1.2

What do the screens show for `CS(=O)(=O)N(CC(=O)Nc1cccc([N+](=O)[O-])c1)c1cccc(F)c1`?
KCNQ2 enhance: 0.16; KCNQ2 enhance baseline: -1.4

What do the screens show for `CC(NC(=O)c1ccc2c(c1)OCCO2)C(=O)O` (stereo not given)?
KCNQ2 enhance: 0.27; KCNQ2 enhance baseline: -1.9

How did COCCn1c(=S)[nH]c2cc(OC)c(OC)cc2c1=O do in these assays?
KCNQ2 enhance: 1.9; KCNQ2 enhance baseline: 0.77

Results for O=C(Oc1ccc(F)c(F)c1)c1ccc2c(=O)n3c(nc2c1)CCC3 ?
KCNQ2 enhance: 0.45; KCNQ2 enhance baseline: 1.7

Results for Cc1ccc(N(CC(=O)NC2CCCCC2)S(=O)(=O)c2c(C)noc2C)cc1 ?
KCNQ2 enhance: 0.01; KCNQ2 enhance baseline: 1.5

Results for COc1ccc(S(=O)(=O)N2CCCCCC2)cc1C(=O)Nc1ccccn1 ?
KCNQ2 enhance: 0.56; KCNQ2 enhance baseline: 1

Results for O=C(Nc1ccc(F)c([N+](=O)[O-])c1)C1CCCO1 (stereo not given) ?
KCNQ2 enhance: 0.97; KCNQ2 enhance baseline: -0.97

Results for COc1ccccc1C(=O)NC(C)c1ccccc1 (stereo not given) ?
KCNQ2 enhance: 0.04; KCNQ2 enhance baseline: -1.3

What do the screens show for `COc1cc(NC(C)C(=O)N2CC(C)OC(C)C2)cc(OC)c1` (stereo not given)?
KCNQ2 enhance: 3.1; KCNQ2 enhance baseline: 0.63

How did CCC(=O)/C=C1\Sc2ccccc2N1CC do in these assays?
KCNQ2 enhance: 0.75; KCNQ2 enhance baseline: -0.43

What do the screens show for `O=C(NCc1nc2ccccc2[nH]1)c1ccc([N+](=O)[O-])cc1`?
KCNQ2 enhance: 0.11; KCNQ2 enhance baseline: 0

Results for O=C(c1ccc2c(c1)N(Cc1ccccc1)CCS2)N1CCOCC1 ?
KCNQ2 enhance: 0.01; KCNQ2 enhance baseline: 0.41

What do the screens show for `O=S(=O)(c1ccc(Cl)c(NC(=S)N/N=C/c2ccc(O)cc2)c1)N1CCOCC1`?
KCNQ2 enhance: 0.69; KCNQ2 enhance baseline: -0.04

6 entries drawn at random from the list so far:
Results for O=C(Nc1ccc(F)c([N+](=O)[O-])c1)C1CCCO1 (stereo not given) ?
KCNQ2 enhance: 0.97; KCNQ2 enhance baseline: -0.97

Results for Cc1ccc(N(CC(=O)NC2CCCCC2)S(=O)(=O)c2c(C)noc2C)cc1 ?
KCNQ2 enhance: 0.01; KCNQ2 enhance baseline: 1.5

What do the screens show for `O=S(=O)(c1ccc(Cl)c(NC(=S)N/N=C/c2ccc(O)cc2)c1)N1CCOCC1`?
KCNQ2 enhance: 0.69; KCNQ2 enhance baseline: -0.04

Results for O=C(c1ccc2c(c1)N(Cc1ccccc1)CCS2)N1CCOCC1 ?
KCNQ2 enhance: 0.01; KCNQ2 enhance baseline: 0.41

What do the screens show for `COc1cc(NC(C)C(=O)N2CC(C)OC(C)C2)cc(OC)c1` (stereo not given)?
KCNQ2 enhance: 3.1; KCNQ2 enhance baseline: 0.63

Results for O=C(Oc1ccc(F)c(F)c1)c1ccc2c(=O)n3c(nc2c1)CCC3 ?
KCNQ2 enhance: 0.45; KCNQ2 enhance baseline: 1.7

(cont.)
What do the screens show for `COCCCNC(=O)CNC(=S)N(Cc1cc(OC)c(OC)c(OC)c1)C1CCCC1`?
KCNQ2 enhance: 0.72; KCNQ2 enhance baseline: -2

What do the screens show for `CC1(c2nnc(-c3ccccc3)o2)CC(c2cccnc2)=NO1` (stereo not given)?
KCNQ2 enhance: 1.8; KCNQ2 enhance baseline: -0.01

Results for Cc1nn(Cc2ccc(F)cc2Cl)c(C)c1[N+](=O)[O-] ?
KCNQ2 enhance: 0.93; KCNQ2 enhance baseline: 0.05

How did O=C(Cc1cccc2ccccc12)NC(NC(=S)Nc1ccccc1Cl)C(Cl)(Cl)Cl (stereo not given) do in these assays?
KCNQ2 enhance: 0.7; KCNQ2 enhance baseline: 0.94

What do the screens show for `Cc1cc(=O)n(C)c(=O)n1CCCCCN1CCCC1`?
KCNQ2 enhance: 0.18; KCNQ2 enhance baseline: 1.9

Results for CN=c1scc(-c2ccco2)n1/N=C/c1ccc(O)c(O)c1 ?
KCNQ2 enhance: 0.12; KCNQ2 enhance baseline: 0.02

What do the screens show for `O=C(O)CC(NS(=O)(=O)c1cccc2nsnc12)c1ccc(F)cc1` (stereo not given)?
KCNQ2 enhance: 0.02; KCNQ2 enhance baseline: 1.5

Results for CN(C)CCCNC1CS(=O)(=O)CC1O (stereo not given) ?
KCNQ2 enhance: 0.06; KCNQ2 enhance baseline: 0.58

How did CC(C)Nc1nc(Cl)nc(N(C#N)CN2C(=O)c3ccccc3S2(=O)=O)n1 do in these assays?
KCNQ2 enhance: 0.48; KCNQ2 enhance baseline: 1.1

What do the screens show for `COc1ccc([N+](=O)[O-])cc1NC(=O)N(C)Cc1ccco1`?
KCNQ2 enhance: 1.6; KCNQ2 enhance baseline: 0.08

What do the screens show for `Cc1ccc(NC2=NCC(=O)N2Cc2cccs2)cc1C`?
KCNQ2 enhance: 0.74; KCNQ2 enhance baseline: 0.04

Results for CSc1c(-c2ccccc2)nc2ccccc2c1C(=O)O ?
KCNQ2 enhance: 1.2; KCNQ2 enhance baseline: -0.59

What do the screens show for `CC1(C)Cc2nc3sc4c(=O)[nH]cnc4c3cc2CS1`?
KCNQ2 enhance: 0.42; KCNQ2 enhance baseline: -0.1

How did Cc1cc(S(=O)(=O)NC2CCCCC2)ccc1OCC(=O)NCc1cccnc1 do in these assays?
KCNQ2 enhance: 0.32; KCNQ2 enhance baseline: -0.22

How did Cc1[nH]cnc1CSCCN do in these assays?
KCNQ2 enhance: 0.61; KCNQ2 enhance baseline: -1.5

What do the screens show for `COc1ccccc1NC(=O)c1oc2ccc(C)cc2c1C`?
KCNQ2 enhance: 1.2; KCNQ2 enhance baseline: 0.86

How did Cc1ccc(S(=O)(=O)N2CCCCC2)cc1C(=O)NCc1ccccn1 do in these assays?
KCNQ2 enhance: 0.39; KCNQ2 enhance baseline: 0.16

How did O=C(C(=O)N1CCCC1)c1c(-c2ccccc2)[nH]c2ccccc12 do in these assays?
KCNQ2 enhance: 1.6; KCNQ2 enhance baseline: 1.5

What do the screens show for `O=C(NNC(=O)C1CCN(S(=O)(=O)c2c(Cl)cccc2Cl)CC1)c1ccccc1O`?
KCNQ2 enhance: 0.14; KCNQ2 enhance baseline: -0.22

What do the screens show for `CCCCCC(=O)N(CN1C(=O)CCC1=O)c1ccccc1`?
KCNQ2 enhance: 0.26; KCNQ2 enhance baseline: -1.1

Results for CN1CCN(c2ccc(NC(=O)C(C)(c3ccccc3)c3ccccc3)cc2)CC1 ?
KCNQ2 enhance: 0.54; KCNQ2 enhance baseline: -3

What do the screens show for `Cc1cc(C(=O)CSc2nn3c(=O)c(C(C)(C)C)nnc3s2)c(C)n1C1CC1`?
KCNQ2 enhance: 0.29; KCNQ2 enhance baseline: 1

How did COc1cc(C(F)(F)F)ccc1C(=O)NCCc1ccco1 do in these assays?
KCNQ2 enhance: 0.46; KCNQ2 enhance baseline: -0.99

What do the screens show for `Cc1nc2c(c(=O)c3ccccc3n2C)c(=O)n1-c1ccc(F)cc1`?
KCNQ2 enhance: 0.37; KCNQ2 enhance baseline: 0.04

How did COc1ccc(NC(=O)C(C)Sc2ccccc2)cc1 (stereo not given) do in these assays?
KCNQ2 enhance: 1.3; KCNQ2 enhance baseline: -0.49

How did Cc1cccc(OCC(=O)Nc2nnc(S(=O)(=O)N3CCCCC3)s2)c1 do in these assays?
KCNQ2 enhance: 0.95; KCNQ2 enhance baseline: -0.14

How did CCc1cccc(NC(=O)C2CCCN2C(=O)Nc2ccc(C)cc2)c1 (stereo not given) do in these assays?
KCNQ2 enhance: 1.1; KCNQ2 enhance baseline: -0.76

Results for Cc1ccc(S(=O)(=O)N2CCN3CCCC3C2)cc1 (stereo not given) ?
KCNQ2 enhance: 0.07; KCNQ2 enhance baseline: 0.01

How did O=c1cnnc(SCc2ccc([N+](=O)[O-])cc2)[nH]1 do in these assays?
KCNQ2 enhance: 2.5; KCNQ2 enhance baseline: -2.5

How did CN(C)c1ccc(CNC(=O)CN2C(=O)COc3ccc(S(=O)(=O)N4CCCC4)cc32)cc1 do in these assays?
KCNQ2 enhance: 0.83; KCNQ2 enhance baseline: -1.1

How did O=C(CN1CCOCC1)Nc1c2c(nc3ccccc13)N(Cc1ccccc1)CC2 do in these assays?
KCNQ2 enhance: 1.4; KCNQ2 enhance baseline: -0.03

Results for Nc1cc2c(cc1[N+](=O)[O-])OCCO2 ?
KCNQ2 enhance: 0.55; KCNQ2 enhance baseline: -0.44

What do the screens show for `Cc1cc(OCC(=O)c2cccc(C(F)(F)F)c2)n2cnnc2n1`?
KCNQ2 enhance: 2.2; KCNQ2 enhance baseline: -1.1

Results for CCOc1nc(NCCN2CCOCC2)nc(NC(C)C)n1 ?
KCNQ2 enhance: 0.06; KCNQ2 enhance baseline: 1.6

How did COC(=O)CCCC(=O)N1CCC(CO)(CCc2ccccc2)CC1 do in these assays?
KCNQ2 enhance: 0.22; KCNQ2 enhance baseline: 0

What do the screens show for `CCC(NC(=O)c1ccccc1NC(=O)c1ccc(C)cc1)C(=O)O` (stereo not given)?
KCNQ2 enhance: 0.76; KCNQ2 enhance baseline: 0.02

What do the screens show for `CCOC(=O)N1CCC(NC(=O)C2=C(C)C(=O)OC23CCC(C)CC3)CC1` (stereo not given)?
KCNQ2 enhance: 2.2; KCNQ2 enhance baseline: -3.2

What do the screens show for `CCN(CC(=O)NCc1cccs1)C(=O)/C=C/c1cccc(OC)c1OC`?
KCNQ2 enhance: 0.04; KCNQ2 enhance baseline: 2.2

Results for Cc1ccc(Cn2cc(/C=N/NC(=O)Cc3nnc(NC(=O)c4ccc(C)cc4)s3)c3ccccc32)cc1 ?
KCNQ2 enhance: 2.7; KCNQ2 enhance baseline: 4.8

Results for CCCCC(=O)OCC(=O)c1ccc(OCC)cc1 ?
KCNQ2 enhance: 2.1; KCNQ2 enhance baseline: 0.69

How did CCC(=O)Nc1ccc(-c2cc3ccccc3oc2=O)cc1 do in these assays?
KCNQ2 enhance: 0.12; KCNQ2 enhance baseline: -1.7

How did CCc1c(SCCC(=O)O)nc2ccccc2c1C do in these assays?
KCNQ2 enhance: 1.5; KCNQ2 enhance baseline: -1.4

Results for CS(=O)(=O)Nc1ccc(C(=O)NCC2CCCO2)cc1 (stereo not given) ?
KCNQ2 enhance: 0.19; KCNQ2 enhance baseline: 0.33

What do the screens show for `COCCn1c(N2CCN(c3ccc(OC)cc3)CC2)nc2c1c(=O)n(C)c(=O)n2C`?
KCNQ2 enhance: 0.18; KCNQ2 enhance baseline: -2.9

What do the screens show for `O=C(CSc1nc(-c2ccncc2)nn1CC(=O)N1CCCCC1)NC1CCCC1`?
KCNQ2 enhance: 0.28; KCNQ2 enhance baseline: -0.27

Results for C=CCSC1=N/C(=C\c2ccc(C(=O)O)cc2)C(=O)S1 ?
KCNQ2 enhance: 2.9; KCNQ2 enhance baseline: -2

What do the screens show for `CN(C)c1ccc(/C=N\NC(=O)c2cccc3cc[nH]c23)cc1`?
KCNQ2 enhance: 1.1; KCNQ2 enhance baseline: 2.9

Results for CSc1ncc(-c2ccc(Cl)cc2)[nH]1 ?
KCNQ2 enhance: 0.04; KCNQ2 enhance baseline: 0

What do the screens show for `Cc1cccc(/C=N/N(CCO)C2=NS(=O)(=O)c3ccccc32)c1`?
KCNQ2 enhance: 2.5; KCNQ2 enhance baseline: -1.3

How did Cc1ccc(S(=O)(=O)NCC(=O)N(CC(=O)NCC2CCCO2)CC2CCCO2)cc1 (stereo not given) do in these assays?
KCNQ2 enhance: 0.13; KCNQ2 enhance baseline: -1.5

What do the screens show for `Cc1cc(C)c(NC(=S)N(CCCN2CCN(C)CC2)Cc2cccs2)c(C)c1`?
KCNQ2 enhance: 0.06; KCNQ2 enhance baseline: -2.5

How did O=C(CNC(=O)C12CC3CC(CC(C3)C1)C2)NCc1ccccc1 do in these assays?
KCNQ2 enhance: 0.46; KCNQ2 enhance baseline: -0.12

What do the screens show for `CCOc1cc(C#N)c(NC(=O)CSc2nnnn2-c2ccc(OC)cc2)cc1OCC`?
KCNQ2 enhance: 0.85; KCNQ2 enhance baseline: 1.9

Results for C/C(N)=C(/C#N)C(=O)COC(=O)c1ccccc1Oc1ccccc1 ?
KCNQ2 enhance: 0.04; KCNQ2 enhance baseline: -1.5

How did Cc1ccccc1-n1c(C)cc(/C=N/NC(=O)c2ccncc2)c1C do in these assays?
KCNQ2 enhance: 3.2; KCNQ2 enhance baseline: 0.27

How did O=C(NCc1ccco1)c1cc(S(=O)(=O)N2CCOCC2)c(Cl)cc1Cl do in these assays?
KCNQ2 enhance: 0.29; KCNQ2 enhance baseline: 1.5

How did COCCn1nnnc1C(c1ccccc1)N1CCN(C(=O)c2ccco2)CC1 (stereo not given) do in these assays?
KCNQ2 enhance: 0.67; KCNQ2 enhance baseline: -0.01

Bioassay records (PubChem)
